B2AR ag – human beta-2 adrenergic receptor agonism by FAP; P07550; response, % (no concentration beside the values); 340,000 tested, 0.43% active; AID 504454; Am2.2-beta2AR cells, FAP receptor internalization, flow cytometry; reference of the scale not given here;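 active = response above a set limit, near 3 SD of response in nonfluorescent compounds, cut at about 42% in these data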;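 note: stock transfer was 100 nL into about 11 µL; a reference agonist was the positive control; negative values mostly stem from fluorescent compounds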
Target sequence (P07550 whole entry, looked up): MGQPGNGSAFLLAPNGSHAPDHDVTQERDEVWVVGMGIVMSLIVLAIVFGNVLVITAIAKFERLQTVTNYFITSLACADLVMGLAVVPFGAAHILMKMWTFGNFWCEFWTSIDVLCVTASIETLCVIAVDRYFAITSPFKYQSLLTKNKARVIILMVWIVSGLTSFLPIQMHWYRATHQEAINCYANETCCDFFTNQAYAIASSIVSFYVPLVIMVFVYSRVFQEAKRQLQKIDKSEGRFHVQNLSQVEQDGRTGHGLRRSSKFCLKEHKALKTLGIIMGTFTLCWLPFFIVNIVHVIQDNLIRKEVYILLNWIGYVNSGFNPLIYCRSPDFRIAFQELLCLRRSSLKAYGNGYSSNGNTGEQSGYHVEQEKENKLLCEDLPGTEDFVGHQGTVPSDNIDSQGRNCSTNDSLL
T cruzi repl – T. cruzi replication inhibition; T. cruzi beta-gal in NIH3T3, luminescence, 90 h; 300,000 tested, 1.4% active; AID 1885; inhibition, % (concentration not given with the values);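 active = mean inhibition across valid replicates above about 55%, limit read from the data; inconclusive = mean below that limit but half or more replicates reach it; inactive = mean below it, under half of replicates reach it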;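 note: signal also drops with host cell toxicity which is not excluded here; 0% = plate median of DMSO wells and 100% = zero luminescence signal; higher percent means less beta-gal luminescence so fewer parasites; stock transfer was 50 nL into about 50 µL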
ALR H2O2 inh – blocks human ALR sulfhydryl oxidase activity; P55789; purified ALR, DTT oxidation, H2O2 HRP-luminol luminescence; inhibition, % (test concentration not listed); 290,000 tested, 3.8% active; AID 485317;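 active = mean and each replicate at 75% or more; inconclusive = only one of the two met; inactive = neither met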;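 note: stock transfer was 7.5 nL into about 7.5 µL; 0% = neutral wells and 100% = wells with inactivated enzyme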
Target sequence (P55789 whole entry, looked up): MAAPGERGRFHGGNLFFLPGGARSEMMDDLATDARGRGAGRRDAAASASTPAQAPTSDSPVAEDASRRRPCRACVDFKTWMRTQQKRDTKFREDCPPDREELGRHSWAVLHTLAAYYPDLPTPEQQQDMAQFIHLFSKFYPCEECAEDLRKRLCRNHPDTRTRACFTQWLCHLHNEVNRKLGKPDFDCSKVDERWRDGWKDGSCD
Beta cell apopt – beta cell apoptosis inhibition | INS-1E cytokine-induced death, ATP luminescence, 48 h; percent of positive-control rescue, neutral wells zero | protection from apoptosis, % (test concentration not listed) | 300,000 tested, 0.8% active | AID 435005;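 active = all replicates at 75% or more, or half of them and the mean; inconclusive = half reach 75% but not the mean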;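 note: 0% = cytokine-treated negative control wells and 100% = positive control rescue; higher means more ATP so stronger rescue from cytokine killing; wells of about 40 µL received 100 nL stock; the first replicate is given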
Bfl-1 A1 inh – inhibitors of the anti-apoptotic protein A1, read as caspase activation; 330,000 tested, 0.066% active; caspase activation, % (concentration not given with the values); MEF A1-2A-BIM cells, Caspase-Glo 3/7 luminescence, 3 h; percent of clofoctol response, vehicle zero;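 active = over half of replicate activation scores above 10%, or exactly half above 10 with the replicate mean above 10; inconclusive = replicate mean below 10 yet half the replicates above 10; inactive = over half of replicates below 10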;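 note: wells of about 30 µL received 50 nL stock; many hits fall short of the cut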
Calb FLC – C. albicans growth modulation with fluconazole; growth inhibition, % (test concentration not listed); AID 1979; 300,000 tested, 0.57% active; C. albicans CaCi-2 (fluconazole-resistant clinical isolate) + fluconazole, Alamar Blue growth, 48 h;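 active = most replicates above 75%; inconclusive = exactly half above 75%; inactive = most below 75%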;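 note: all wells also contain fluconazole at 8 µg/ml as a sub-toxic cotreatment; 0% = median of DMSO wells and 100% = median of geldanamycin control wells; wells of about 8 µL received 7.5 nL stock; the first replicate is given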
Ecoli rRNA inh – selective bacterial rRNA inhibition in E. coli | E. coli WT GFP vs humanized-ribosome RFP mutants, fluorescence, 24 h; active compounds read low; DMSO median 0, no signal -100 | GFP signal change (wild-type ribosome), % (concentration not given with the values) | 350,000 tested, 1.6% active;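 active = significant combined selectivity score with lowered wild-type GFP, culture density cut under 30%, mutant RFP and density less affected; inactive = any of these conditions unmet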; note: one replicate is shown; some compounds called inactive have numbers as strong as hits
LANA-H2A inh – blocks KSHV LANA binding to histone H2A/H2B; 320,000 tested, 0.6% active; Q9QR71; cell-free LANA-H2A/H2B peptide, fluorescence polarization; inhibition, % (concentration not given with the values); AID 2629; in the data active = inhibition mostly above about 10%, no sharp cut-off; inactive = mostly below about 6.7%;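 note: stock transfer was 7.5 nL into about 10 µL; 0% = median of vehicle wells and 100% = median of positive control wells; one replicate is shown; the record names a cut of 25% in any replicate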
Ecoli rRNA inh OD600 – second read-out of Ecoli rRNA inh, no call of its own (marks repeat the call); OD600 change, %; measured here: OD600 growth;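 optical density of the mix in the first replicate; 0 = DMSO median and -100 = no signal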
Ecoli rRNA inh RFP – recorded beside Ecoli rRNA inh, whose call it bears; RFP signal change, %; measured here: RFP humanized mutant strains;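 first replicate; 0 = DMSO median and -100 = no signal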
Numbers without * were called inactive; ? = inconclusive; . = not tested or not shown. An excerpt; count on the stated rates, not on these rows.

SMILES	B2AR ag	T cruzi repl	ALR H2O2 inh	Beta cell apopt	Bfl-1 A1 inh	Calb FLC	Ecoli rRNA inh	Ecoli rRNA inh OD600	Ecoli rRNA inh RFP	LANA-H2A inh
O=C1C2ON(c3ccccc3)C(c3cccnc3)C2C(=O)N1Cc1ccccc1 (stereo unspecified)	5.9	-7.1	-5.3	1.3	-0.7	8.8	.	.	.	-6.4
O=C(N1CCOCC1)C1(c2ccc(Cl)cc2)CCCC1	3.3	-18.6	-23.4	0.9	0.1	32.9	.	.	.	5.3
CC(C)NS(=O)(=O)c1ccc(OCC(=O)Nc2cccc(F)c2)cc1	5.2	-4.4	-12.1	-7.0	-0.4	-2.1	-4.7	4.8	-2.4	0.6
Cn1c(N)c(C(=O)COC(=O)c2ncc(Cl)c(Cl)c2Cl)c(=O)n(C)c1=O	-2.0	-21.0	2.1	-7.3	-0.1	-3.2	15.1	14.6	4.6	2.5
CCOc1cc(/C=N/Nc2cc(C)nc(-n3nc(C)cc3C)n2)ccc1O	10.0	29.7	-2.2	98.5*	8.6*	5.6	-2.9	-3.1	13.4	2.7
COc1cccc(NC(=O)NCc2ccccc2F)c1	1.4	-17.6	-7.6	3.3	-1.9	-33.2	14.4	6.1	3.4	0.8
Cc1[nH]c2ccccc2c1CN1CCC(Cc2ccccc2)CC1	28.1	93.9*	-126.4	103.7*	0.2	59.5	-42.3*	-30.3*	-6.1*	1.3
CCOC(=O)c1cnc2c(C#N)c(C)nn2c1-c1ccccc1	11.2	-12.6	-1.5	1.5	-0.5	1.7	.	.	.	-16.6
CN(C)S(=O)(=O)c1ccc(Cl)c(NC(=O)CN2C(=O)NC(C)(C3CC3)C2=O)c1 (stereo unspecified)	2.4	3.6	-10.6	-0.1	1.3	-4.2	0.8	0.2	-2.9	-6.2
O=c1c2ccccc2nc(-c2ccccc2)n1Cc1ccco1	-10.6	18.9	-0.8	2.2	0.0	-21.6	.	.	.	-1.4
Cc1ccc2c(c1)[nH]c1c(N3CCN(Cc4ccccc4)CC3)ncnc12	20.6	-21.4	98.4*	112.9*	0.2	29.7	.	.	.	-2.6
COc1cccc(CN2CCNC(=O)C2CC(=O)NCCc2cccc(C)n2)c1OC (stereo unspecified)	5.1	-3.7	-19.8	-5.6	-0.8	-10.2	7.2	3.2	0.1	7.5
CCC(C)[C@H]1COCCS(=O)(=O)N1Cc1ccc(Br)cc1 (stereo partly specified)	-0.5	13.8	-3.5	-6.7	0.2	36.4	-55.9	-82.8	-20.4	5.3
O=C(c1ccco1)N1CCN(S(=O)(=O)c2cccc(Cl)c2)CC1	-4.9	-10.4	1.0	-3.1	0.3	1.3	3.1	-0.9	-0.1	1.4
O=C(CSCc1ccc(Br)cc1)NC1CC1	-3.6	-16.1	.	-1.5	-0.4	-14.1	7.1	3.2	-4.5	5.5
O=C(Cn1ncc2c(=O)oc3ccccc3c21)NCCCN1CCCC1=O	-12.5	-14.2	-1.9	-3.7	1.1	-0.7	8.8	4.0	3.7	-0.4
COC(=O)c1ccc(NC(=O)c2cc3c(CO)cnc(C)c3oc2=Nc2cccc(C(N)=O)c2)cc1	-1.1	-1.1	6.5	6.2	1.4	4.6	12.1	21.6	-0.6	2.1
COc1ccc(OC)c(NC(=O)CSc2nnc(CNc3ccc(C)cc3C)o2)c1	9.6	-4.3	53.7	-6.6	-0.4	11.4	.	.	.	2.6
CCOC(=O)N1CCN(C(=O)CN2C(=O)NC(C)(c3ccc4ccccc4c3)C2=O)CC1 (stereo unspecified)	-1.8	.	-0.8	-1.1	0.1	.	2.0	-6.3	1.5	0.3
COc1cc(OC)nc(-n2ncc(Br)c(Br)c2=O)n1	25.0	.	92.0*	99.2*	-1.0	.	8.2	5.6	6.4	7.4
CCCCN(C)C(=O)C1CCN(CCCc2ccccc2)CC1	2.6	1.8	-1.7	-0.2	0.1	3.4	-0.9	5.2	-2.2	-1.2
Cc1ccc(C)c(NC(=O)CSc2nnc(Cc3cccn3C)n2-c2ccc(F)cc2)c1	7.8	-0.8	10.1	1.8	0.2	-4.4	-2.5	0.3	1.3	-5.1
CC(C)c1ccc(O)c(NC(=O)c2cccnc2)c1	4.9	-20.9	88.7*	-1.0	0.3	3.4	-17.1	-9.9	-4.1	-4.4
Cc1ccccc1Cn1c2ccccc2c2cnn(CC(=O)NCCCN3CCOCC3)c(=O)c21	-5.6	-8.5	-2.9	2.8	0.3	6.2	-0.5	-3.0	-1.0	-4.9
COc1ccccc1C1NC(=O)NC(C)=C1C(=O)OC1CCC(C)CC1 (stereo unspecified)	2.3	6.5	-7.7	-7.4	0.6	0.3	4.8	5.6	-2.7	2.4
CN(C)c1ccc(NC(=O)COC(=O)CCC(=O)c2ccc(F)cc2)cc1	-0.6	-1.8	96.6*	1.0	-0.4	1.7	.	.	.	-1.0
CC(Sc1nnc(Nc2ccccc2)s1)C(=O)NC1CCCc2ccccc21 (stereo unspecified)	-3.6	19.1	0.8	9.5	0.7	-6.9	.	.	.	-4.2
Cc1ccc(-c2c(C(=O)NCc3ccc(F)cc3)oc(=O)c3ccccc23)cc1	1.7	5.2	-7.2	-8.9	1.4	4.1	.	.	.	2.0
COc1ccc(C2=NN(CC(=O)NCc3ccco3)C(=O)CC2)cc1	-3.3	1.6	7.4	-7.3	-1.9	1.4	.	.	.	-0.5
Cc1nc2c(ccc3nc(NC(=O)Cc4cccc5ccccc45)sc32)s1	5.0	34.7	-3.3	.	-0.5	-2.2	3.3	8.7	-2.5	-3.1
COc1ccc(-c2c(C#N)c(N)nc3c2CCCCCC3)cc1OC	-2.1	-12.2	3.4	0.3	-0.5	-5.2	.	.	.	1.8
COc1ccccc1CCNC(C)CCc1ccc(O)cc1 (stereo unspecified)	2.4	9.1	31.6	-9.3	?	-18.2	5.7	2.8	-0.6	-1.1
COc1ccccc1NC(C)C(=O)N/N=C/c1ccccc1OCc1cccc(Br)c1 (stereo unspecified)	-8.1	31.7	-2.1	-3.1	0.0	6.8	11.7	-24.9	-1.9	-3.2
COc1ccccc1NC(=O)COC(=O)c1ccc2ccccc2n1	11.9	.	1.4	-1.3	-0.8	.	3.5	5.8	-1.8	-4.8
COC(=O)c1ccc(Nc2cc(C)nc3ccc(C)cc23)cc1	-6.3	8.4	-5.0	32.0	-0.3	-11.1	13.9	0.3	-1.9	0.2
O=C(Nc1ccc(F)cc1)OCCN1CCN(Cc2ccccc2)CCC1=O	-4.1	-11.7	-0.2	7.4	0.2	-3.5	-7.2	1.1	-4.7	0.3
O=C1C(Cc2ccccc2)NC(=S)N1Cc1ccccc1 (stereo unspecified)	11.1	1.0	15.8	-3.7	0.5	9.6	1.0	2.9	1.1	-2.2
N/C(=N\OC(=O)CCC1CCCC1)c1ccccc1	-1.6	-14.9	1.8	2.3	1.0	-3.4	11.8	9.5	0.5	-4.7
CCCN(CCC)S(=O)(=O)c1ccc(C(=O)NNc2nc(-c3ccccc3)c3cc(Br)ccc3n2)cc1	-1.4	19.1	-21.0	-33.8	-0.2	30.6	9.5	2.7	5.4	3.9
Cc1cccc(C)c1OCCCCN1CCNCC1	-1.5	17.0	-3.5	-7.6	-0.9	-5.7	-5.7	-6.4	0.6	1.3
CC(C)C(=O)Nc1nnc(S(=O)(=O)N(C)c2ccc(Cl)cc2)s1	-3.4	-27.3	-4.0	0.4	1.0	-3.2	5.1	5.9	-7.9	-0.9
O=c1[nH]c(Cc2ccccn2)nc2scc(-c3ccccc3Cl)c12	-5.9	3.0	-11.6	-4.4	-0.5	0.0	0.9	-4.0	0.0	-11.9
CCc1cccc(NC(=O)CCCCCC2NC(=O)NC2C)c1 (stereo unspecified)	15.9	6.1	-2.9	-5.2	0.2	-5.2	7.0	12.2	-1.1	-3.2
CC(C)C(NC(=O)CSCc1ccc([N+](=O)[O-])cc1)C(C)C	-8.3	-2.7	98.4*	-4.0	1.3	-4.3	7.3	5.0	-3.1	5.7
CCOc1ccc(C2/C(=C(/O)c3ccc(S(=O)(=O)N4CCCCC4)cc3)C(=O)C(=O)N2CCCOC)cc1OC (stereo unspecified)	9.4	?	0.0	.	0.7	-2.1	3.3	7.1	-1.7	0.5
COc1ccc(N(C)C(=O)c2oc(=O)c3ccccc3c2-c2ccccc2)c(OC)c1	12.4	-2.2	-9.7	0.3	-0.1	12.9	-21.8	-11.6	19.6	-0.7
Cc1nc2ccc(N=NN(C)C)cc2[nH]1	0.3	6.8	34.0	2.5	-0.1	-4.0	.	.	.	-1.1
CCOC(=O)N1CCN(C(=O)CCCN2C(=O)CSc3nc(C)cc(C)c32)CC1	4.1	-4.1	-7.0	-1.7	0.4	-5.7	.	.	.	3.3
CC(=O)c1c(C)[nH]c(C(=O)CSc2nnc(C)s2)c1C	7.7	-5.5	34.9	-0.5	-1.1	0.7	-12.1	-15.0	25.0	2.5
O=C(Nc1nc2ccccc2[nH]1)c1ccccc1O	1.0	-4.3	-11.6	7.3	-7.9	-2.6	11.4	6.2	1.1	-4.6
Cc1cc(C)cc(N(CC(=O)NC(C)(C)C)C(=O)CNC(=O)c2cccs2)c1	-1.2	5.0	0.2	-1.4	-0.5	-5.4	17.9	17.1	1.3	-5.0
O=C(N/N=C/c1cc(Br)ccc1O)C(=O)Nc1ccccc1OC(F)(F)C(F)F	2.7	56.6*	-5.0	83.5*	1.5	26.8	.	.	.	-1.1
Cc1nc(N2CCN(S(=O)(=O)c3ccccc3C#N)CC2)c2c(-c3ccccc3)csc2n1	7.3	.	-2.2	9.6	-0.6	.	1.5	5.9	1.1	.
Cc1ccc(/C=C/C(=O)Nc2ccc(Oc3ccccc3)cc2)o1	9.7	-19.0	18.6	-0.8	-1.0	31.4	.	.	.	-18.4
CCCS(=O)(=O)C(=C(Nc1ccc(OC)cc1)Nc1ccc(OC)cc1)S(=O)(=O)CCC	0.3	27.3	-6.4	-2.1	0.1	?	.	.	.	-0.8
Cc1ccc(/C=C/S(=O)(=O)NCc2ccc(F)cc2)cc1	11.4	2.8	4.3	-3.3	-0.3	-9.9	-0.5	2.5	0.6	-0.5
CCC(C(=O)NC1CC1)n1nc(C)c2c(C)n(-c3ccc(C)cc3)nc2c1=O (stereo unspecified)	11.2	-0.5	0.6	-4.7	-1.0	8.1	0.5	9.1	-2.8	-3.1
Cc1occc1-c1nnc(SCC(=O)N2CCN(c3ccc(F)cc3)CC2)n1C	-14.8	-15.6	17.7	-5.3	0.5	-1.5	.	.	.	-0.5
COc1cc(C(=O)NCCc2ccc(S(=O)(=O)N3CCCC3)cc2)cc(OC)c1OC	-0.2	0.8	-4.9	-1.4	0.4	0.9	-1.8	-1.5	-6.4	-2.1
